Source: PubChem BioAssay (several laboratories)
Vif A3G: HIV-1 Vif–A3G interaction blockers – biochemical, TR-FRET, GST-Vif 1-94, biotin-A3G peptide, dose response retest, primary screen (AID 1117319) | hit rate 0.57% among 260,000 | inhibition, %; hits with a dose series show IC50 in µM | TR-FRET GST-Vif / biotin-A3G peptide binding; higher % means a stronger effect; test concentration not given here; strong numbers were not always called active;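 active = above the screen mean plus three standard deviations and confirmed in dose response; inconclusive = results disagree or hit not tested in dose response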;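 also: Vif residues 1-94 fused to GST binding biotinylated APOBEC3G peptide 110-148; 0% = full assay without inhibitor and 100% = GST in place of GST-Vif; retest series ran down from 100 µM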
HNF4A DNA FP: change in binding of human HNF4 alpha to DNA | P41235 | HNF4a-FITC DNA binding, fluorescence polarization, 1 h | activity change, % at 10 µM | hit rate 0.3% among 360,000; in the data active = activity change above about 30%, passing the limit was not always enough;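 also: controls were the assay level and a saturating level of protein; the project sought stronger binding though the title names inhibitors; some compounds called inactive have numbers as strong as hits; positive values seem to mean higher polarization but the record does not say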
rRNA inh HTS: inhibitors of bacterial rRNA selective over humanized ribosomes | E. coli WT GFP vs humanized-ribosome RFP mutants, fluorescence, 24 h; stronger effect = lower value; DMSO median 0, no signal -100 | GFP signal change (wild-type ribosome), % (test concentration not listed) | hit rate 1.6% among 350,000 | AID 720706;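 active = significant combined selectivity score with lowered wild-type GFP, culture density cut under 30%, mutant RFP and density less affected; inactive = any of these conditions unmet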; also: one replicate is shown; some compounds called inactive have numbers as strong as hits
ALR H2O2 inh: inhibitors of human sulfhydryl oxidase ALR; purified ALR, DTT oxidation, H2O2 HRP-luminol luminescence; AID 485317; hit rate 3.8% among 290,000; P55789; inhibition, % (concentration not given with the values);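 active = mean and each replicate at 75% or more; inconclusive = only one of the two met; inactive = neither met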;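 also: stock transfer was 7.5 nL into about 7.5 µL; 0% = neutral wells and 100% = wells with inactivated enzyme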
Target sequence (P55789 whole entry, looked up): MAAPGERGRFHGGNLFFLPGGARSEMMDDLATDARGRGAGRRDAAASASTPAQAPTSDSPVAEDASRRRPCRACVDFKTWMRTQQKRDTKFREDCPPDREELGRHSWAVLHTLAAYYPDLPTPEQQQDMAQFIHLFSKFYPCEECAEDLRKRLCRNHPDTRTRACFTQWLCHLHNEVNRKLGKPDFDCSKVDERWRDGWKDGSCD
Ecoli growth: blocks Escherichia coli growth; hit rate 0.21% among 330,000; OD600, 23 h; stronger effect = lower value; OD600 absorbance (no concentration beside the values);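 active = OD600 absorbance below the run mean of sample wells minus 3.6 SD, in any replicate, cut at about 0.56 in these data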;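 also: stock transfer was 300 nL into about 60 µL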
FGF22 binding: binders of recombinant human FGF22 by thermal shift; Q9HCT0; SYPRO orange fluorescence; percent of sucrose octasulfate shift, DMSO zero; calls only at 9.99 µM; hit rate 1.5% among 340,000;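 active = melting point raised past a set limit in the mean and every replicate; inconclusive = no clear call; three in four hits are not shown here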
Target sequence (Q9HCT0 whole entry, looked up): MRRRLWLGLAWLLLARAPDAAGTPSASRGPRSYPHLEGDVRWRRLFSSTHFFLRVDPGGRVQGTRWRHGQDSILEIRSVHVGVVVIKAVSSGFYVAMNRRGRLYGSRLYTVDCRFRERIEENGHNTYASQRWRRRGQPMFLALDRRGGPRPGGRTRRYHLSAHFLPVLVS
AF4-AF9 inh: MLL-AF4/AF9 protein interaction inhibition | AlphaScreen, biotin-AF4 peptide binding to FLAG-AF9 | inhibition, % at 10 µM | hit rate 0.47% among 350,000;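 active = every replicate reaching a set inhibition limit, whatever the replicate mean, cut at about 25% in these data; inconclusive = mean inhibition reaches that limit but some replicates miss it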;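 also: 0% = plate neutral control median and 100% = total signal loss; the record names both 10 and 1 µM as test concentration; the first replicate is given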
Target sequence (P42568 whole entry, looked up): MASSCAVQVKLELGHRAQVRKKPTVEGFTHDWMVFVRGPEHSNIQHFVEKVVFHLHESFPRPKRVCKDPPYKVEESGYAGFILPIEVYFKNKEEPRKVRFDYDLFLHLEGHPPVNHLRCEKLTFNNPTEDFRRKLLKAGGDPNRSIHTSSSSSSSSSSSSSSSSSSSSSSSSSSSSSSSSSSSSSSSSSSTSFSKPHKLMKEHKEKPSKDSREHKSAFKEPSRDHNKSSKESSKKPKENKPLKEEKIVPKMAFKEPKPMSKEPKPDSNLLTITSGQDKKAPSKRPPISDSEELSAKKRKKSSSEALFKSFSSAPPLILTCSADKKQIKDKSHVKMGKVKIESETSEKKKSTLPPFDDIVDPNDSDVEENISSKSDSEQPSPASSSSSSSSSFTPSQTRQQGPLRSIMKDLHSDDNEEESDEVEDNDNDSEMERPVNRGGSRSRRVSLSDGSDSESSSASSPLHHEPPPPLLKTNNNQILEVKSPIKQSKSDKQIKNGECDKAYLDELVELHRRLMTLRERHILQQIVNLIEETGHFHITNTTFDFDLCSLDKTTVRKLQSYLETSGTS
rRNA inh HTS OD600: also measured in rRNA inh HTS; calls as there; OD600 change, %; measured here: OD600 growth;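 optical density of the mix in the first replicate; 0 = DMSO median and -100 = no signal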
rRNA inh HTS RFP: also measured in rRNA inh HTS; calls as there; RFP signal change, %; measured here: RFP humanized mutant strains;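 first replicate; 0 = DMSO median and -100 = no signal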
An asterisk follows results filed as active; i = inactive; ? = inconclusive; nt = no result given. Only part of the results is shown; the hit share may differ from the screen's.

SMILES	Vif A3G	HNF4A DNA FP	rRNA inh HTS	rRNA inh HTS OD600	rRNA inh HTS RFP	ALR H2O2 inh	Ecoli growth	FGF22 binding	AF4-AF9 inh
C=CCn1c(SCc2cc([N+](=O)[O-])cc3c2OCOC3)nc2cc(C(=O)O)ccc2c1=O	-4%	-2.3	1	-10	2.3	20	0.69	i	-9.0
C(=C\c1sc(Nc2ccccc2)n[n+]1-c1ccccc1)/c1ccccc1	nt	1.2	-3	1	-9.0	nt	nt	i	31*
O=C(/C=C/c1cccs1)NNC(=O)c1ccccc1	nt	-0.3	4	13	-1.9	nt	0.69	i	?
Cc1ccc(S(=O)(=O)N(C)C)cc1NC(=O)[C@H](Cc1ccccc1)N1C(=O)c2ccccc2C1=O	4%	1.1	10	11	0.0	nt	0.63	i	3.3
O=C(Nc1ccccc1[N+](=O)[O-])c1cccnc1Cl	7%	1.2	-26	-34	-6.9	-5	0.66	i	12
O=C(OCC(=O)N1CCCC1)c1c(Cl)ccc(Cl)c1Cl	nt	-1.0	-3	-1	-1.0	0	0.61	i	-3.6
CC(C)CC(=O)NC(=S)N1CCCCCC1	-3%	0.6	nt	nt	nt	1	0.71	nt	nt
Nc1nonc1-c1nc2ccccc2n1CC(=O)Nc1ccccc1	7%	-2.7	-4	-2	2.7	-5	0.61	i	3.3
CO[C@H]1CN(C)C(=O)c2ccc(NC(=O)C3CCC3)cc2OC[C@@H](C)N(C(=O)NC(C)C)C[C@H]1C	nt	nt	-1	-2	-0.6	nt	nt	i	-2.4
C[C@H](CO)N1C[C@H](C)[C@H](CN(C)Cc2cccc(C(=O)O)c2)Oc2ncc(/C=C/c3ccccc3)cc2C1=O	nt	nt	-6	23	3.4	nt	nt	i	-0.5
COc1ccc(-c2cc(=O)oc3c(C)c(OC(=O)c4cccs4)ccc23)cc1	nt	4.2	24	14	-1.9	-3	0.71	i	-2.3
Cc1cccc(OCC(=O)Nc2ccncc2)c1C	-3%	0.7	-3	-7	-8.8	-2	0.62	i	-4.2
N#C/C(=N\Nc1cccc(F)c1)C(=O)C1CC1	-16%	-0.1	-25*	-7.5*	-1.3*	13	nt	i	1.2
Cc1noc(C)c1S(=O)(=O)Nc1ccc2c(c1)C(=O)N([C@H](C)CO)C[C@@H](C)[C@H](CN(C)Cc1ccccc1)OCCCC[C@@H](C)O2	nt	nt	-1	-6	-0.3	nt	nt	i	5.6
CCOC(=O)CSc1c(-c2cccs2)[nH]c2ccccc12	1%	-0.9	nt	nt	nt	72	0.64	nt	nt
Cc1cc([N+](=O)[O-])nn1CCCC(=O)O	25%	4.8	12	9	-0.1	0	0.69	i	-0.7
COC1CCCN(Cc2c(C(=O)N3CCc4ccccc4C3)nc3ccc(Cl)cn23)C1 (configuration not stated)	nt	-1.6	-1	6	-1.5	35	0.65	i	3.5
C[C@@H]1CN([C@@H](C)CO)C(=O)Cc2cc(NC(=O)CCN3CCOCC3)ccc2O[C@H]1CN(C)S(=O)(=O)c1cn(C)cn1	nt	nt	5	2	-1.3	nt	nt	i	-10
CCOCCCNS(=O)(=O)c1ccc(NC(=O)CN2C(=O)c3ccccc3C2=O)cc1	-5%	-0.7	10	8	-3.9	-4	0.67	i	-1.8
COc1ccc(CCNC(=O)C(C)SCC(=O)Nc2ccc(F)cc2)cc1 (configuration not stated)	6%	3.8	6	3	-2.1	-33	0.69	i	-3.1

By substructure: those above with fluorine.
SMILES	Vif A3G	HNF4A DNA FP	rRNA inh HTS	rRNA inh HTS OD600	rRNA inh HTS RFP	ALR H2O2 inh	Ecoli growth	FGF22 binding	AF4-AF9 inh
N#C/C(=N\Nc1cccc(F)c1)C(=O)C1CC1	-16%	-0.1	-25*	-7.5*	-1.3*	13	nt	i	1.2
COc1ccc(CCNC(=O)C(C)SCC(=O)Nc2ccc(F)cc2)cc1 (configuration not stated)	6%	3.8	6	3	-2.1	-33	0.69	i	-3.1

The listing continues.
SMILES	Vif A3G	HNF4A DNA FP	rRNA inh HTS	rRNA inh HTS OD600	rRNA inh HTS RFP	ALR H2O2 inh	Ecoli growth	FGF22 binding	AF4-AF9 inh
COc1ccc2c(c1)OC(O)(C(F)(F)C(F)F)CC2=O (configuration not stated)	-1%	1.0	-16	-2	-7.1	1	0.62	i	-3.1
CN(C)S(=O)(=O)c1ccc(C(=O)NCCS(=O)(=O)N2CCN(c3ccc(F)cc3)CC2)cc1	nt	2.9	5	5	1.8	0	0.72	i	-2.5
Cc1ccccc1NC(=O)Cc1nc(COC(=O)Cc2cccc(C(F)(F)F)c2)cs1	-4%	0.5	-4	-14	6.4	nt	nt	i	-1.0
Cc1ccc(CONC(=O)c2ccccc2Cl)cc1	nt	-2.3	7	5	0.1	nt	0.69	nt	-2.4
Cc1ccc2nc3ccc(N4CCCC4)nn3c(=O)c2c1	12%	-6.0	nt	nt	nt	-8	0.7	nt	nt
FC(F)(F)c1cc(-c2ccco2)nc(N2CCN(Cc3ccccc3)CC2)n1	7%	-0.7	nt	nt	nt	-6	0.75	nt	nt
CCOc1ccc(-n2nnnc2SCC(=O)Nc2ccc(NC(C)=O)cc2)cc1	nt	0.1	14	7	2.8	-4	0.66	i	2.0
CNC(=O)c1cc(NC(=O)CCn2nc(-c3ccc(C)cc3)c3ccccc3c2=O)ccc1OC	2%	-0.4	5	-2	1.5	-8	0.66	i	1.8
CC(C)CC#Cc1ccc2c(c1)O[C@@H](CN(C)C(=O)Cc1ccncc1)[C@@H](C)CN([C@H](C)CO)S2(=O)=O	nt	nt	1	-8	6.8	nt	nt	i	2.6
CCCC(=O)Nc1ccc(-c2csc(N/N=C\c3ccncc3)n2)cc1	12%	0.5	nt	nt	nt	98*	nt	i	-1.5
CCC(C(=O)O)n1c2ccccc2c2cn[nH]c(=O)c21 (configuration not stated)	-7%	-4.9	16	2	0.8	nt	0.66	i	-6.3
Cc1ccc(CNC(=O)CCNC(=O)c2ccc([N+](=O)[O-])cc2)cc1	nt	0.4	nt	nt	nt	-16	0.7	i	-0.1
CC(C)c1ccc(CCNC(=O)c2cccc(S(=O)(=O)N3CCN(C)CC3)c2)cc1	nt	0.2	-14	-16	-2.7	-3	0.69	i	3.0
CCOC(=O)N1CCN(S(=O)(=O)c2cccs2)CC1	?	-0.2	nt	nt	nt	-5	0.76	nt	nt
CCc1cccc2c(C(=O)CSc3nnc(C4CC4)o3)c[nH]c12	-3%	0.1	0	-32	-1.4	0	0.72	i	-1.2
C[C@@H]1CCCCO[C@@H](CN(C)S(=O)(=O)c2cn(C)cn2)[C@H](C)CN([C@H](C)CO)C(=O)c2cc(NS(=O)(=O)c3cccs3)ccc2O1	nt	nt	2	4	-2.7	nt	nt	i	0.7
Cc1ccc(-c2ccc(C(=O)NCCCNC(=O)c3cnccn3)o2)cc1Cl	nt	1.2	-11	-18	0.3	14	0.66	i	4.0
O=C(O)C1CCN(c2nc(-c3ccccc3)nc3c2oc2ccccc23)CC1	3%	-1.0	nt	nt	nt	22	0.69	nt	nt
CS(=O)(=O)Nc1ccc(C(=O)Nc2ccc3c(c2)OCCO3)cc1	14%	nt	nt	nt	nt	-2	0.72	nt	nt
C[C@@H]1CN([C@@H](C)CO)C(=O)Cc2cc(NS(=O)(=O)c3cccs3)ccc2O[C@@H]1CN(C)S(C)(=O)=O	nt	nt	4	16	0.2	nt	nt	i	-1.2
CC(C)NC(=O)N(C)C[C@@H]1OCCCC[C@@H](C)Oc2ccc(NC(=O)Nc3ccc4c(c3)OCO4)cc2C(=O)N([C@@H](C)CO)C[C@H]1C	nt	nt	-1	-3	0.4	nt	nt	i	1.1
O=C(COc1cccc(C(F)(F)F)c1)Nc1ccccc1N1CCCCC1	2%	2.4	-1	10	-0.5	-15	0.65	i	-0.2
CC(=O)C1=C(O)C(=O)N(CCNCCO)C1c1ccccc1 (configuration not stated)	2%	-0.3	nt	nt	nt	-1	0.73	nt	nt
CCC(C(=O)OCC(=O)NC1CCS(=O)(=O)C1)c1ccccc1 (configuration not stated)	nt	0.6	1	10	-2.2	4	0.69	i	10
COC(=O)C[C@H]1C[C@H]2c3cc(NC(=O)C4CCC4)ccc3O[C@H]2[C@@H](CO)O1	nt	nt	2	4	-1.9	nt	nt	i	-1.2
CCc1c(C)nc(SCC(=O)N2CCCCC2C)[nH]c1=O (configuration not stated)	3%	0.9	17	13	3.6	1	0.67	i	-1.8
Cc1ccc(C(C)C)c(OCCN2C(=O)NC(C)(C)C2=O)c1	15%	2.0	nt	nt	nt	-4	0.65	nt	nt
COc1ccc(S(=O)(=O)N(C)CC(=O)N2CCCCCC2)cc1OC	16%	-1.2	nt	nt	nt	-7	0.66	nt	nt
N/C(=N\OC(=O)c1ccccc1Cl)c1ccncc1	3%	1.9	-9	1	-1.0	-1	0.68	i	-3.2
CNc1ncnc2c1ncn2[C@H]1CN(Cc2ccc3c(c2)OCO3)C[C@@H](CO)O1	nt	2.4	9	17	-0.9	nt	nt	i	1.8
COc1ccc(NC(=O)c2ccccc2O)c(OC)c1	2%	-1.4	-32	-42	-14	17	0.71	i	6.2
CCOC(=O)c1cnc2ccc(C)cc2c1NCCN1CCOCC1	1%	1.4	-9	4	-1.1	4	0.67	i	-3.2
CC(=O)c1cccc(N(CC(=O)Nc2ccc(F)cc2F)S(C)(=O)=O)c1	7%	3.4	nt	nt	nt	-7	0.71	nt	nt
COC(=O)c1cc(S(=O)(=O)Nc2nn(C)c3cccc(F)c23)oc1C	nt	-0.4	13	-2	3.4	5	0.68	i	nt
COc1ccc(CN2CCNC(=O)C2CC(=O)NCc2ccc(C)s2)c(OC)c1 (configuration not stated)	7%	-2.9	0	-2	-1.7	-8	0.7	nt	2.1
O=C(COc1ccc(Cl)cc1)NNC(=O)c1cccnc1	-2%	0.0	14	17	-0.1	-8	0.72	i	-2.0
O=C1C2CC(O)CN2C(=O)N1c1ccccc1 (configuration not stated)	nt	1.1	0	4	0.0	-4	0.65	i	-7.4

Of the compounds above, these contain an aryl methoxy group:
SMILES	Vif A3G	HNF4A DNA FP	rRNA inh HTS	rRNA inh HTS OD600	rRNA inh HTS RFP	ALR H2O2 inh	Ecoli growth	FGF22 binding	AF4-AF9 inh
COc1ccc(-c2cc(=O)oc3c(C)c(OC(=O)c4cccs4)ccc23)cc1	nt	4.2	24	14	-1.9	-3	0.71	i	-2.3
COc1ccc(CCNC(=O)C(C)SCC(=O)Nc2ccc(F)cc2)cc1 (configuration not stated)	6%	3.8	6	3	-2.1	-33	0.69	i	-3.1
COc1ccc2c(c1)OC(O)(C(F)(F)C(F)F)CC2=O (configuration not stated)	-1%	1.0	-16	-2	-7.1	1	0.62	i	-3.1
CNC(=O)c1cc(NC(=O)CCn2nc(-c3ccc(C)cc3)c3ccccc3c2=O)ccc1OC	2%	-0.4	5	-2	1.5	-8	0.66	i	1.8
COc1ccc(S(=O)(=O)N(C)CC(=O)N2CCCCCC2)cc1OC	16%	-1.2	nt	nt	nt	-7	0.66	nt	nt
COc1ccc(NC(=O)c2ccccc2O)c(OC)c1	2%	-1.4	-32	-42	-14	17	0.71	i	6.2
COc1ccc(CN2CCNC(=O)C2CC(=O)NCc2ccc(C)s2)c(OC)c1 (configuration not stated)	7%	-2.9	0	-2	-1.7	-8	0.7	nt	2.1
